Compound activity from PubChem.
Insulin prom inh: inhibitors of insulin promoter-driven GFP, primary screen, imaging, TRM-6 cells (human fetal islet line), eGFP reporter, cell count | reporter expression induced with tamoxifen | inhibition, % at 2 µM | 130,000 compounds, 0.9% hits | AID 1273, 2008;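 active = inhibition above the mean plus 3 SD, with well images judged a real hit on visual review, cut at about 60% in these data, passing the limit was not always enough; inconclusive = inhibition over the cutoff but images rejected on review; inactive = inhibition not above the cutoff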
GALR2 agonist: GALR2 receptor agonists, primary screen, cell-based; 140,000 compounds, 0.48% hits; activation, %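 (tested at 5 µM)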; Galanin receptor type 2 (Homo sapiens), O43603; GALR2-expressing cells, agonist activation read-out;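 active = above mean plus 3 SD of all compounds, about 5% in these data, not always enough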;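 also: 0% = vehicle buffer wells and 100% = reference agonist at full effect; tested in CHO reporter cells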
HSV replic up: enhancers of HSV replication in host cells, fold increase, host cell viability | 220,000 compounds, 0.005% hits | HSV replication augmentation in cells | maximum fold increase;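 active = peak rise of 1.5-fold or more in the series; inconclusive = self-fluorescent or not available for retest; tested in PC3 cells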;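 also: first round at 10 µM; read as green reporter fluorescence; hits show the peak of a series up to 25 µM; 1 = signal of infected wells without compound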
PKD1 inh: inhibitors of human PKD1 kinase, biochemical, fluorescence polarization | 200,000 compounds, 0.056% hits | AID 797, 2007 | PKD1 kinase fluorescence polarization assay | inhibition, %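 (about 10 µM by stock and volumes)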;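 active = inhibition of 50% or more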;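 also: controls were vehicle for no effect and a reference inhibitor for full effect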
Target sequence (Q15139 whole entry, looked up): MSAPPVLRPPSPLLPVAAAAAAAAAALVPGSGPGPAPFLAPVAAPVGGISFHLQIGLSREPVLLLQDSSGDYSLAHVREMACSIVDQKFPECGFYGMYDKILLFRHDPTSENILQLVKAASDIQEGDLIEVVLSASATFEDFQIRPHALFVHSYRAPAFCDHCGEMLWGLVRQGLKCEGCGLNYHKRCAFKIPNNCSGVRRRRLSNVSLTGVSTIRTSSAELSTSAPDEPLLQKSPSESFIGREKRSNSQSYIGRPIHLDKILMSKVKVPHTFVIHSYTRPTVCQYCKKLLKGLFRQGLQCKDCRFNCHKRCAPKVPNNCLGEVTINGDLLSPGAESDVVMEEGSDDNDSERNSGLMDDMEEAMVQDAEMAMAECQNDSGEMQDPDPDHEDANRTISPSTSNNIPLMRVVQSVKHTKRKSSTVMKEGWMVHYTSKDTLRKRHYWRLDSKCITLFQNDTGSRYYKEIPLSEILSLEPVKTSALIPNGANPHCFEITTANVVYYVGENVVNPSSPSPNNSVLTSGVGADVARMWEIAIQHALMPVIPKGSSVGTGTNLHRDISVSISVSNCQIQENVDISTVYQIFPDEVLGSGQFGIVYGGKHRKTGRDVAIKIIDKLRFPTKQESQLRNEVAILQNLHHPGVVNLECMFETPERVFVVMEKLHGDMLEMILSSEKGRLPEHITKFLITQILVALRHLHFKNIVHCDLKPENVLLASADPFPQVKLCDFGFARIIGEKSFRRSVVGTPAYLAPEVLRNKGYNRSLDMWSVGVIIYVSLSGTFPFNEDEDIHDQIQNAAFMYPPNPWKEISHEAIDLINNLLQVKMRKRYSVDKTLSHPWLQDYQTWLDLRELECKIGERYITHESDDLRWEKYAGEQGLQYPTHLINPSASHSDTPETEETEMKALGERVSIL
RGS16-Gao HTS: modulators of RGS16 binding to Galphao, primary screen, biochemical, human proteins, multiplexed bead flow cytometry; bead-based flow cytometry RGS16-Galphao binding, fluorescence; actives lie on both sides; binding response (% of control), % at 10 µM; 220,000 compounds, 0.38% hits;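 active = below 25% or above 175%, edge rows of some plates excepted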;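 also: Galphao activated by GDP with aluminum fluoride before binding; 100% = wells without compound and 0% = beads without RGS; some results beyond the cut were filed as inactive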
Insulin prom inh cell count: further read-out of Insulin prom inh, marked with its call; normalized cell count, %; measured here: cell count, toxicity; reference of the scale not given here;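 cells exposed to compound for 48 h; stained nuclei by imaging scaled within each plate; lower means fewer cells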
HSV replic up primary fold: second read-out of HSV replic up, no call of its own (marks repeat the call); fold increase; compound at 10 µM; measured here: primary screen fold increase 10 uM; tested in PC3 cells;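 GFP signal in the first replicate; 1 = infected wells without compound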
The depositor's hits bear a star.

Results for CCOC(=O)c1c(C)[nH]c(C(=O)COC(=O)[C@H](C)NC(=O)c2ccccc2Cl)c1C ?
GALR2 agonist: -1.8; HSV replic up: inactive; PKD1 inh: -15; RGS16-Gao HTS: 99; HSV replic up primary fold: 0.81

How did CC(C)c1ccccc1OCCNS(C)(=O)=O do in these assays?
Insulin prom inh: -16; GALR2 agonist: -2.9; HSV replic up: inactive; PKD1 inh: 3; RGS16-Gao HTS: 93; Insulin prom inh cell count: 92; HSV replic up primary fold: 0.97

Results for CCc1ccc2nc3sc(C(=O)Nc4nnc(CC)s4)c(N)c3cc2c1 ?
Insulin prom inh: -14; GALR2 agonist: -3.1; HSV replic up: inconclusive; PKD1 inh: -5; RGS16-Gao HTS: 100; Insulin prom inh cell count: 109

What do the screens show for `NC(=O)C(=O)NCCCN1CCOCC1`?
Insulin prom inh: -43; HSV replic up: inactive; PKD1 inh: 4; RGS16-Gao HTS: 104; Insulin prom inh cell count: 122; HSV replic up primary fold: 0.93

What do the screens show for `Cc1cccc(Nc2ccccc2C(=O)OCC(=O)N(C)C2CCS(=O)(=O)C2)c1C` (stereo not given)?
Insulin prom inh: -31; GALR2 agonist: -0.3; HSV replic up: inactive; PKD1 inh: 3; RGS16-Gao HTS: 104; Insulin prom inh cell count: 68; HSV replic up primary fold: 0.93

How did CN1CCc2c(C#N)c(N3CCOCC3)nc(NCC3CCCO3)c2C1 (stereo not given) do in these assays?
HSV replic up: inactive; RGS16-Gao HTS: 96; HSV replic up primary fold: 1

Results for O=C(CCc1nc(-c2ccccc2)no1)NC1CCCCC1 ?
Insulin prom inh: -220; GALR2 agonist: -1.3; HSV replic up: inactive; PKD1 inh: -1; RGS16-Gao HTS: 102; Insulin prom inh cell count: 160; HSV replic up primary fold: 1

What do the screens show for `O=C(O)/C=C/c1ccc(S(=O)(=O)Nc2ccc(C(=O)NCC(=O)O)cc2)cc1`?
HSV replic up: inactive; PKD1 inh: -3; RGS16-Gao HTS: 103; HSV replic up primary fold: 0.95

Results for COc1cc(C2Nc3ccccc3C(=O)N2c2ccc(Cl)cc2)c(Cl)cc1OCC(=O)O (stereo not given) ?
Insulin prom inh: -17; GALR2 agonist: 0.3; HSV replic up: inactive; PKD1 inh: 0; RGS16-Gao HTS: 79; Insulin prom inh cell count: 137; HSV replic up primary fold: 0.9

What do the screens show for `CCOC(=O)C1CCCN(C(=O)c2ccc(C)c([N+](=O)[O-])c2)C1` (stereo not given)?
Insulin prom inh: 0; GALR2 agonist: -1.6; HSV replic up: inactive; PKD1 inh: -1; RGS16-Gao HTS: 235; Insulin prom inh cell count: 114; HSV replic up primary fold: 1.1

Results for O=C(OCCN1C(=O)c2ccccc2C1=O)C1CCN(S(=O)(=O)c2cccs2)CC1 ?
Insulin prom inh: 50; GALR2 agonist: -0.6; HSV replic up: inactive; PKD1 inh: 20; RGS16-Gao HTS: 57; Insulin prom inh cell count: 116; HSV replic up primary fold: 0.93

How did CCN(Cc1ccccc1)C(=O)Cn1c(=O)n(CC(=O)NCc2ccco2)c(=O)c2sccc21 do in these assays?
GALR2 agonist: -3.8; HSV replic up: inactive; PKD1 inh: -6; RGS16-Gao HTS: 105; HSV replic up primary fold: 0.91

What do the screens show for `C=CCN1C(=O)C2(C(C#N)=C(N)Oc3n[nH]c(CCC)c32)c2ccccc21` (stereo not given)?
Insulin prom inh: 38; GALR2 agonist: -2.9; HSV replic up: inactive; PKD1 inh: 7; RGS16-Gao HTS: 153; Insulin prom inh cell count: 148; HSV replic up primary fold: 0.79

Results for COc1cc2nc(C)sc2cc1SC ?
Insulin prom inh: -26; GALR2 agonist: -1.4; HSV replic up: inactive; PKD1 inh: -10; RGS16-Gao HTS: 92; Insulin prom inh cell count: 122; HSV replic up primary fold: 0.76

How did Cc1cc(Br)ccc1NC(=O)c1ccccc1-c1ccccc1 do in these assays?
GALR2 agonist: 0.0; HSV replic up: inactive; PKD1 inh: 0; RGS16-Gao HTS: 75; HSV replic up primary fold: 1.1

Reprinted at random: 2 compounds from above
Results for O=C(OCCN1C(=O)c2ccccc2C1=O)C1CCN(S(=O)(=O)c2cccs2)CC1 ?
Insulin prom inh: 50; GALR2 agonist: -0.6; HSV replic up: inactive; PKD1 inh: 20; RGS16-Gao HTS: 57; Insulin prom inh cell count: 116; HSV replic up primary fold: 0.93

What do the screens show for `Cc1cccc(Nc2ccccc2C(=O)OCC(=O)N(C)C2CCS(=O)(=O)C2)c1C` (stereo not given)?
Insulin prom inh: -31; GALR2 agonist: -0.3; HSV replic up: inactive; PKD1 inh: 3; RGS16-Gao HTS: 104; Insulin prom inh cell count: 68; HSV replic up primary fold: 0.93

Carrying on:
How did O=S(=O)(Nc1cccc(-c2nc3cccnc3s2)c1)c1ccc2c(c1)OCCO2 do in these assays?
GALR2 agonist: -3.6; HSV replic up: inactive; PKD1 inh: 2; RGS16-Gao HTS: 100; HSV replic up primary fold: 0.72

How did O=C(Nc1ccc(Cl)cn1)c1ccc(COCC(F)(F)C(F)F)o1 do in these assays?
Insulin prom inh: 0; GALR2 agonist: -3.0; HSV replic up: inactive; PKD1 inh: 3; RGS16-Gao HTS: 100; Insulin prom inh cell count: 112; HSV replic up primary fold: 1.1

What do the screens show for `O=C(COc1ccc2ccccc2c1Br)Nc1ncn[nH]1`?
GALR2 agonist: 0.4; HSV replic up: inactive; PKD1 inh: -5; RGS16-Gao HTS: 115; HSV replic up primary fold: 0.96

How did CCNC(=O)c1ccc2c(c1)S(=O)(=O)c1ccccc1C2=O do in these assays?
GALR2 agonist: -1.8; HSV replic up: inactive; PKD1 inh: -13; RGS16-Gao HTS: 84; HSV replic up primary fold: 1.1

Results for O=C(COc1ccc2ccccc2c1)N1CCN(C(=O)c2ccc([N+](=O)[O-])cc2)CC1 ?
HSV replic up: inactive; PKD1 inh: -3; RGS16-Gao HTS: 99; HSV replic up primary fold: 1

What do the screens show for `CC(=O)N1N=C(C)CC1c1ccc(OCc2ccccc2)cc1` (stereo not given)?
GALR2 agonist: -1.0; HSV replic up: inactive; PKD1 inh: 6; RGS16-Gao HTS: 99; HSV replic up primary fold: 1

Results for O=c1sc2ccccc2n1COc1ccccc1 ?
Insulin prom inh: 8; GALR2 agonist: -1.0; PKD1 inh: -15; Insulin prom inh cell count: 116

Results for Cc1cc(C)c(C#N)c(Oc2ccccc2Br)n1 ?
HSV replic up: inactive; PKD1 inh: -4; RGS16-Gao HTS: 101; HSV replic up primary fold: 0.91

What do the screens show for `COCCN(C(=O)CSc1nnc(-c2cccc(OC)c2)n1C)c1c(N)n(Cc2ccccc2)c(=O)[nH]c1=O`?
HSV replic up: inactive; PKD1 inh: -7; RGS16-Gao HTS: 100; HSV replic up primary fold: 0.83

Results for Cc1[nH]c2ccccc2c1C(=O)Cn1c(=O)oc2ccccc21 ?
Insulin prom inh: -6; GALR2 agonist: 1.1; HSV replic up: inactive; PKD1 inh: 2; RGS16-Gao HTS: 103; Insulin prom inh cell count: 129; HSV replic up primary fold: 0.8

What do the screens show for `C=CCn1c(SCC(=O)c2ccc(NS(=O)(=O)c3ccccc3)cc2)nnc1-c1cccs1`?
Insulin prom inh: 23; GALR2 agonist: -1.3; HSV replic up: inactive; PKD1 inh: -12; RGS16-Gao HTS: 99; Insulin prom inh cell count: 94; HSV replic up primary fold: 0.93

What do the screens show for `CC(C)C(=O)Nc1ccc(NC(=S)NC(=O)c2ccc([N+](=O)[O-])cc2)cc1`?
Insulin prom inh: -31; GALR2 agonist: -2.0; HSV replic up: inactive; PKD1 inh: -9; RGS16-Gao HTS: 34; Insulin prom inh cell count: 106; HSV replic up primary fold: 0.92

Results for CCOC(=O)CN(C(=O)CSc1nnc2c(n1)[nH]c1ccc(F)cc12)c1ccccc1 ?
Insulin prom inh: -28; GALR2 agonist: -1.0; HSV replic up: inactive; PKD1 inh: -4; RGS16-Gao HTS: 98; Insulin prom inh cell count: 115; HSV replic up primary fold: 0.88

Results for CCOC(=O)C(C(=O)N1CCOCC1)C1CCCCC1 (stereo not given) ?
Insulin prom inh: -193; GALR2 agonist: -1.2; HSV replic up: inactive; PKD1 inh: 5; RGS16-Gao HTS: 98; Insulin prom inh cell count: 40; HSV replic up primary fold: 1

What do the screens show for `CCCn1c(SCC(=O)N2N=C3/C(=C/c4ccc(OC)cc4)CCCC3C2c2ccc(OC)cc2)n[nH]c1=O` (stereo not given)?
Insulin prom inh: -48; GALR2 agonist: 1.1; HSV replic up: inactive; PKD1 inh: -10; RGS16-Gao HTS: 103; Insulin prom inh cell count: 100; HSV replic up primary fold: 0.81

Already shown: an excerpt of the list.
Results for CCOC(=O)C(C(=O)N1CCOCC1)C1CCCCC1 (stereo not given) ?
Insulin prom inh: -193; GALR2 agonist: -1.2; HSV replic up: inactive; PKD1 inh: 5; RGS16-Gao HTS: 98; Insulin prom inh cell count: 40; HSV replic up primary fold: 1

What do the screens show for `CCCn1c(SCC(=O)N2N=C3/C(=C/c4ccc(OC)cc4)CCCC3C2c2ccc(OC)cc2)n[nH]c1=O` (stereo not given)?
Insulin prom inh: -48; GALR2 agonist: 1.1; HSV replic up: inactive; PKD1 inh: -10; RGS16-Gao HTS: 103; Insulin prom inh cell count: 100; HSV replic up primary fold: 0.81

(more compounds)
Results for CCC(=O)N1N=C(c2cccs2)CC1c1ccco1 (stereo not given) ?
HSV replic up: inactive; PKD1 inh: 2; RGS16-Gao HTS: 108; HSV replic up primary fold: 1.1

Results for COc1ccc(N=C2C(=O)N3CCCc4cccc2c43)cc1 ?
Insulin prom inh: -100; GALR2 agonist: -0.1; HSV replic up: inactive; PKD1 inh: 0; RGS16-Gao HTS: 89; Insulin prom inh cell count: 77; HSV replic up primary fold: 0.86

What do the screens show for `Cc1ccc(NC(=O)N2CCCN(Cc3ccc(F)cc3)C2)cc1C`?
Insulin prom inh: -129; GALR2 agonist: -1.7; HSV replic up: inactive; PKD1 inh: 0; RGS16-Gao HTS: 99; Insulin prom inh cell count: 73; HSV replic up primary fold: 0.86

How did CCN(CCn1cccn1)Cc1nc(-c2ccc(C(=O)OC)cc2)no1 do in these assays?
HSV replic up: inactive; PKD1 inh: -5; RGS16-Gao HTS: 96; HSV replic up primary fold: 1.2

What do the screens show for `CCOc1ccccc1NC(=O)CC1SC(=N)N(c2ccccc2)C1=O` (stereo not given)?
Insulin prom inh: 67; HSV replic up: inactive; PKD1 inh: -9; RGS16-Gao HTS: 104; Insulin prom inh cell count: 159; HSV replic up primary fold: 0.83

What do the screens show for `CCOC(=O)C(CC)(CC)C(=O)/C=C/c1ccc(OC)cc1`?
HSV replic up: inactive; RGS16-Gao HTS: 108; HSV replic up primary fold: 0.87

What do the screens show for `COc1ccc(C(=O)NC(=S)Nc2ccc3c4c(cccc24)CC3)cc1OC`?
GALR2 agonist: 0.7; HSV replic up: inactive; PKD1 inh: -13; RGS16-Gao HTS: 106; HSV replic up primary fold: 1.1

What do the screens show for `Cc1nc(N)sc1C(=O)OCC(C)C`?
HSV replic up: inactive; PKD1 inh: -3; RGS16-Gao HTS: 101; HSV replic up primary fold: 0.72

Results for Clc1ccc(SCc2cc(-c3ccccc3)no2)cc1 ?
Insulin prom inh: -29; GALR2 agonist: -4.8; HSV replic up: inactive; PKD1 inh: -13; RGS16-Gao HTS: 95; Insulin prom inh cell count: 124; HSV replic up primary fold: 1

Results for Cn1cccc1/C=N/n1cnnc1 ?
GALR2 agonist: -3.2; HSV replic up: inactive; PKD1 inh: -2; RGS16-Gao HTS: 108; HSV replic up primary fold: 0.86

How did C#CCSc1nnc(-c2ccc([N+](=O)[O-])cc2)o1 do in these assays?
HSV replic up: inactive; PKD1 inh: -1; RGS16-Gao HTS: 106; HSV replic up primary fold: 1.1

What do the screens show for `Cc1cnc(NC(=O)c2c(O)c3cccc4c3n(c2=O)CCC4)s1`?
GALR2 agonist: -2.6; HSV replic up: inactive; PKD1 inh: -17; RGS16-Gao HTS: 105; HSV replic up primary fold: 1.1

How did CC(C)NS(=O)(=O)c1ccc2c(c1)oc(=O)n2C do in these assays?
GALR2 agonist: -0.8; HSV replic up: inactive; PKD1 inh: -6; RGS16-Gao HTS: 105; HSV replic up primary fold: 0.89

How did COC(=O)c1c(-c2ccc3ccccc3c2)csc1NC(=O)Cc1ccc(OC)c(OC)c1 do in these assays?
GALR2 agonist: -0.1; PKD1 inh: -10; RGS16-Gao HTS: 101

How did CCC(=NC(CC)CO)C1=C(O)CC(C)(C)CC1=O (stereo not given) do in these assays?
GALR2 agonist: -0.7; HSV replic up: inactive; PKD1 inh: 2; RGS16-Gao HTS: 101; HSV replic up primary fold: 0.92

Results for Cc1ccc2nc(C)c(C(=O)O)cc2c1 ?
Insulin prom inh: -9; HSV replic up: inactive; PKD1 inh: 1; RGS16-Gao HTS: 108; Insulin prom inh cell count: 158; HSV replic up primary fold: 0.94
